HCMV UL50-53 inh = disrupts HCMV UL50-UL53 complex binding | HTRF UL50-UL53 interaction, normalized percent inhibition | inhibition, % (no concentration beside the values) | AID 1918969 | hit rate 0.15% among 190,000;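 active = both replicates at 50% or more, plus weaker picks with an unusually low signal ratio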;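 also: stock transfer was 100 nL into about 20 µL; 0% = negative control wells and 100% = wells with untagged competitor protein; inactives centre near -12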
Sa growth 42C = inhibitors of Staphylococcus aureus growth at 42 °C; S. aureus RN4220 growth, OD600, 20 h; stronger effect = lower value; relative growth, % (no concentration beside the values); hit rate 0.53% among 170,000;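 active = growth at 42 °C up to 50% and 20 or more points under that at 30 °C, or under 10% at both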;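 also: 300 nL library stock went into each well; scaled to the means of positive and negative controls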
GIV Gai3 FP = blocks GIV peptide binding to rat Galpha-i3. Galpha-i3/FITC-GIV peptide fluorescence polarization, 90 min; stronger effect = lower value; scaled: aluminum fluoride 0%, vehicle 100%. percent of control (FP), % (concentration not given with the values). hit rate 0.42% among 210,000. AID 1224905;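 active = replicate mean at 85% of control or lower, very high polarization wells dropped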;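 also: wells of about 15 µL received 100 nL stock; the first replicate is given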
Target sequence (P08753 whole entry, looked up): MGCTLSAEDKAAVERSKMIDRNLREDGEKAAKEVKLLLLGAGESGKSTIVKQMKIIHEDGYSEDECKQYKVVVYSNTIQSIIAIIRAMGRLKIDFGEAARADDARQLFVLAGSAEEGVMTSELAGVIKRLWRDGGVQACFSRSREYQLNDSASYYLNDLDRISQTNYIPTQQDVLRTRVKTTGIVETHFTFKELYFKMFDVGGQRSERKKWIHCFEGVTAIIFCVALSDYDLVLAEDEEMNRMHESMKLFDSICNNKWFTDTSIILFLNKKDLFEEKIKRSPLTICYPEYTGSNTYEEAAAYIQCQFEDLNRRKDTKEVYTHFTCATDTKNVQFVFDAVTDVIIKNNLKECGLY
Sa growth 42C second temp = also measured in Sa growth 42C; calls as there; relative growth, %; measured here: growth at 30 °C;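 optical density after 20 h as mean of two plates; 100% = untreated growth and lower means inhibition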
* marks the source's active call; other numbers are inactive results; & = joins results of further samples.

For Clc1ccc(CN2CCN(c3ncnc4sc5c(c34)CCCC5)CC2)cc1Cl the results were Sa growth 42C 92, GIV Gai3 FP 98 and Sa growth 42C second temp 90.
CN(Cc1ccccc1)C(c1ccc(F)cc1)c1c(O)[nH]c(=O)[nH]c1=O (stereo not given) was read as HCMV UL50-53 inh -3, Sa growth 42C 82, GIV Gai3 FP 100 and Sa growth 42C second temp 83.
For CCCCOc1ccc(-c2nnc(-c3ccco3)n2-c2ccccc2)cc1 the results were HCMV UL50-53 inh -29, Sa growth 42C 85, GIV Gai3 FP 101 and Sa growth 42C second temp 70.
Screening O=C(c1ccccc1)c1cc(Cl)ccc1N=Cc1ccsc1 returned HCMV UL50-53 inh -37, Sa growth 42C 100 and Sa growth 42C second temp 83.
For O=C(CCSCc1ccc(Cl)cc1)NCc1ccc(F)cc1Cl the results were Sa growth 42C 109, GIV Gai3 FP 105 and Sa growth 42C second temp 98.
CCC(=O)N1CCc2cc(S(=O)(=O)NC(CC(C)C)C(=O)NCCc3ccccc3)ccc21 (stereo not given) was read as HCMV UL50-53 inh 8, Sa growth 42C 90, GIV Gai3 FP 102 and Sa growth 42C second temp 88.
`O=C(Nc1ccc(C(=O)OCc2cc(=O)n3c4c(sc3n2)CCCC4)cc1)c1cccc(F)c1` gave Sa growth 42C 76, GIV Gai3 FP 101 and Sa growth 42C second temp 83.
CC1CCCCN1C(=O)Cn1c(SCC(=O)N(C)c2ccccc2)nc2ccccc21 (stereo not given) was read as Sa growth 42C 107, GIV Gai3 FP 100 and Sa growth 42C second temp 90.
For COc1cc(C2C(=O)N(C3CCCCC3)CC(=O)N2CCC2=CCCCC2)ccc1OC(C)C (stereo not given) the results were Sa growth 42C 92, GIV Gai3 FP 104 and Sa growth 42C second temp 98.
Cc1c(C(=O)N(Cc2ccc(N(C)C)cc2)C2CCS(=O)(=O)C2)oc2ccccc12 (stereo not given) was read as HCMV UL50-53 inh -33, Sa growth 42C 106, GIV Gai3 FP 106 and Sa growth 42C second temp 77.
For CC(Sc1nnc(-c2ccco2)o1)C(=O)NC1CCCC1 (stereo not given) the results were HCMV UL50-53 inh -1, Sa growth 42C 92 and Sa growth 42C second temp 98.
CC(=O)Nc1ccc(OCc2cn3cc(C)ccc3n2)cc1 was read as HCMV UL50-53 inh -26, Sa growth 42C 70 and Sa growth 42C second temp 96.
Screening CC1CS(=O)(=O)N(c2ccc(C(=O)NCCc3c[nH]c4ccccc34)cc2)C1=O (stereo not given) returned HCMV UL50-53 inh -1 and GIV Gai3 FP 108.
`CCN(CC)C(=S)Nc1ccc2oc(N(C)C)nc2c1` gave HCMV UL50-53 inh -10, Sa growth 42C 95 and Sa growth 42C second temp 90.
For COC(=O)c1c(C)n(S(C)(=O)=O)c2ccc(N(C(C)=O)S(C)(=O)=O)cc12 the results were HCMV UL50-53 inh -24, Sa growth 42C 83, GIV Gai3 FP 101 and Sa growth 42C second temp 78.
Screening COc1cccc(Sc2ccc(N3CCCC(C(=O)NC(C)C)C3)nn2)c1 (stereo not given) returned HCMV UL50-53 inh -12 and GIV Gai3 FP 107.
`COc1cccc(C2(O)CCN(C(=O)c3cccs3)CC2)c1` gave HCMV UL50-53 inh -2, Sa growth 42C 98, GIV Gai3 FP 104 and Sa growth 42C second temp 79.
`C=C(C)c1cccc(C(C)(C)NC(=O)NCCc2ccc(F)cc2)c1` gave Sa growth 42C 105, GIV Gai3 FP 104 and Sa growth 42C second temp 76.
Screening O=c1c(Cl)c[nH]n(-c2ccccc2)c1=O returned HCMV UL50-53 inh -33, Sa growth 42C 78, GIV Gai3 FP 100 and Sa growth 42C second temp 106.
For O=C(N/N=C1\CCS(=O)(=O)c2ccc(F)cc21)c1ccc2c(c1)OCO2 the results were HCMV UL50-53 inh -9, Sa growth 42C 86 and Sa growth 42C second temp 105.
Screening Cc1ccccc1CNC(=O)CCCn1c(=O)c2cccn2c2ccccc21 returned HCMV UL50-53 inh 4, Sa growth 42C 109, GIV Gai3 FP 106 and Sa growth 42C second temp 77.
Cn1ccc2cc(S(=O)(=O)N3CCCC(C(=O)NCc4ccccc4F)C3)ccc21 (stereo not given) was read as Sa growth 42C 96, GIV Gai3 FP 102 and Sa growth 42C second temp 87.
For COc1cccc(NC(=O)NCCN2CCN=C2C)c1 the results were HCMV UL50-53 inh -14, Sa growth 42C 94, GIV Gai3 FP 102 and Sa growth 42C second temp 95.
Screening Cn1nc(C2CC2)cc1NC(=O)Nc1csc2ccccc12 returned HCMV UL50-53 inh -20, Sa growth 42C 92, GIV Gai3 FP 100 and Sa growth 42C second temp 85.
Cc1cccc(N(C)C(=O)c2cc(S(=O)(=O)N3CCCC3)cn2C)c1 was read as HCMV UL50-53 inh -13, Sa growth 42C 106, GIV Gai3 FP 100 and Sa growth 42C second temp 86.
For Cc1nn(CC(=O)O)c(=O)c2cccn12 the results were Sa growth 42C 109, GIV Gai3 FP 103 and Sa growth 42C second temp 94.
For Cc1ccc(NC(=O)c2c(C)nc3sc(C(=O)N4CCCC4)c(N)c3c2-c2ccco2)c(C)c1 the results were HCMV UL50-53 inh -4, Sa growth 42C 108, GIV Gai3 FP 103 and Sa growth 42C second temp 87.
Screening COc1cccc(N2C(=O)CC(c3c[nH]c4ccccc34)C2=O)c1 (stereo not given) returned HCMV UL50-53 inh -10, Sa growth 42C 112, GIV Gai3 FP 107 and Sa growth 42C second temp 97.
`COc1ccc(-c2cnc(C)o2)cc1S(=O)(=O)Nc1c(C)cc(C)cc1C` gave Sa growth 42C 73, GIV Gai3 FP 100 and Sa growth 42C second temp 80.
For O=C(COCc1cc(-c2ccc3c(c2)OCO3)on1)Nc1cccnc1 the results were HCMV UL50-53 inh 3 and GIV Gai3 FP 98.
`C(=C\c1ccccc1)/CN1CCN(c2ccccc2)CC1` gave HCMV UL50-53 inh -10, Sa growth 42C 101, GIV Gai3 FP 103 and Sa growth 42C second temp 100.
`COc1cc(=O)n(-c2ccc(C)cc2)nc1C(=O)Nc1ccccc1` gave HCMV UL50-53 inh -29 and GIV Gai3 FP 102.
COc1ccc(S(=O)(=O)N(CC(=O)NCCSc2ccccn2)c2ccc(C)cc2)cc1OC was read as HCMV UL50-53 inh -14 and GIV Gai3 FP 99.
For CCn1cc(CNC(=O)c2cc(-c3cc(OC)ccc3OC)nc3ccccc23)c(C)n1 the results were HCMV UL50-53 inh -6 and GIV Gai3 FP 106.
For Cc1ccc(O)c(C2=NNC(O)(C(F)(F)F)C2)c1 (stereo not given) the results were HCMV UL50-53 inh -26, Sa growth 42C 49, GIV Gai3 FP 108 and Sa growth 42C second temp 26.
Screening CC1=C(C#N)C(c2cccnc2)C(C#N)=C(C)N1 returned HCMV UL50-53 inh -26, Sa growth 42C 99 and Sa growth 42C second temp 86.
Screening COc1ccc(-c2[nH]ncc2C(=O)NCCc2ccccc2)cc1 returned Sa growth 42C 95, GIV Gai3 FP 105 and Sa growth 42C second temp 98.
Screening COc1ccc(NC(=O)CCc2c(C)nn3cnnc3c2C)cc1OC returned HCMV UL50-53 inh -8 and GIV Gai3 FP 97.
`O=C(C1CCN(c2ccc(F)cc2)C1=O)N1CCCCC1` (stereo not given) gave HCMV UL50-53 inh -19 and GIV Gai3 FP 100.
`N#C/C(=C\c1ccc(F)cc1)c1nc(-c2ccc(-c3ccccc3)cc2)cs1` gave HCMV UL50-53 inh -28, Sa growth 42C 93, GIV Gai3 FP 107 and Sa growth 42C second temp 87.
For O=C(CCCC(=O)Nc1nccs1)Nc1nccs1 the results were HCMV UL50-53 inh -21, Sa growth 42C 115, GIV Gai3 FP 100 and Sa growth 42C second temp 83.
Screening COc1ccc(/C=C/c2nc(C#N)c(N3CCC(C(N)=O)CC3)o2)cc1OC returned HCMV UL50-53 inh -17, Sa growth 42C 108, GIV Gai3 FP 109 and Sa growth 42C second temp 89.
`CCOC(=O)C1(C(=O)OCC)CCN(S(=O)(=O)c2ccc(C)cc2)c2ccccc2C1=O` gave HCMV UL50-53 inh 12, Sa growth 42C 125 and Sa growth 42C second temp 112.
For Cc1cc2ncn(S(=O)(=O)c3ccc(S(=O)(=O)NC4CCCCC4)cc3)c2cc1C the results were HCMV UL50-53 inh -4, Sa growth 42C 109, GIV Gai3 FP 105 and Sa growth 42C second temp 106.
`CC(C)CCNC(=O)C1CCN(C(=O)N2CCOc3ccc(Cl)cc32)CC1` gave HCMV UL50-53 inh -14&9, Sa growth 42C 103, GIV Gai3 FP 106&99 and Sa growth 42C second temp 80.
COc1ccc(N2CC(NC(=O)c3ccc(S(=O)(=O)N4CCOCC4)cc3)CC2=O)cc1 (stereo not given) was read as Sa growth 42C 100, GIV Gai3 FP 97 and Sa growth 42C second temp 89.
Screening O=C(/C=C/c1cn(-c2ccccc2)nc1-c1ccc(F)cc1)N1CCN(C2CCS(=O)(=O)C2)CC1 (stereo not given) returned HCMV UL50-53 inh -61, Sa growth 42C 86 and Sa growth 42C second temp 86.
Screening CCOC(=O)c1oc2ccc(S(=O)(=O)Nc3noc4ccccc34)cc2c1C returned HCMV UL50-53 inh -6&-15, Sa growth 42C 82, GIV Gai3 FP 102&97 and Sa growth 42C second temp 69.
Screening CCOC(=O)c1cc(-c2ccc(OC)c(S(=O)(=O)Nc3cccc(Cl)c3C)c2)on1 returned HCMV UL50-53 inh -23 and GIV Gai3 FP 102.
CSc1ccc(CNC(=O)CCc2c(C)nn(-c3ccc(N4CCCC4)nn3)c2C)cc1 was read as Sa growth 42C 83, GIV Gai3 FP 98 and Sa growth 42C second temp 88.
For CCN(CC)c1ccc(C2CC(c3ccc(Br)cc3)=NN2C(=O)CCC(=O)O)cc1 (stereo not given) the results were HCMV UL50-53 inh -55 and GIV Gai3 FP 104.
Cc1ccc(CNC(=O)c2ccc3c(c2)N(Cc2ccccc2)C(=O)c2ccccc2S3(=O)=O)cc1 was read as HCMV UL50-53 inh -4, Sa growth 42C 112, GIV Gai3 FP 105 and Sa growth 42C second temp 101.
`C/C(=N\NC(=O)NC1CCCCC1)c1ccc2c(c1)OCO2` gave HCMV UL50-53 inh 5, Sa growth 42C 94 and Sa growth 42C second temp 89.
Screening COc1ccc(C2SCCN2C(=S)Nc2cccc(C(F)(F)F)c2)cc1 (stereo not given) returned Sa growth 42C 105, GIV Gai3 FP 99 and Sa growth 42C second temp 81.
O=C(Oc1ccc2c(c1)OCO2)C1CCCCN1S(=O)(=O)c1ccccc1 (stereo not given) was read as HCMV UL50-53 inh -23, Sa growth 42C 103 and Sa growth 42C second temp 93.
Screening Cc1cccc(N2CCN(C(=O)CS(=O)(=O)Cc3nc(-c4ccccc4C)oc3C)CC2C)c1 (stereo not given) returned HCMV UL50-53 inh 3, Sa growth 42C 97, GIV Gai3 FP 111 and Sa growth 42C second temp 73.
Screening Cn1c(-c2ccc(N)cc2)nc2cc(N)ccc21 returned HCMV UL50-53 inh -20, Sa growth 42C 89, GIV Gai3 FP 102 and Sa growth 42C second temp 85.
COc1ccc(O)c(CN(C)CCN(C)C)c1 was read as HCMV UL50-53 inh 4, Sa growth 42C 125, GIV Gai3 FP 104 and Sa growth 42C second temp 103.
Cc1ccc(C2C(NC(=O)c3ccccc3)C(=O)N2c2ccc(C)cc2)cc1 (stereo not given) was read as Sa growth 42C 79, GIV Gai3 FP 103 and Sa growth 42C second temp 68.
Cc1ccc(C)c(Nc2nn3c(=O)c4ccc(C(=O)NCc5cccs5)cc4nc3s2)c1 was read as Sa growth 42C 106, GIV Gai3 FP 100 and Sa growth 42C second temp 81.

Gathered by group, the entries above with a thiophene ring, fused or not
For Clc1ccc(CN2CCN(c3ncnc4sc5c(c34)CCCC5)CC2)cc1Cl the results were Sa growth 42C 92, GIV Gai3 FP 98 and Sa growth 42C second temp 90.
Screening O=C(c1ccccc1)c1cc(Cl)ccc1N=Cc1ccsc1 returned HCMV UL50-53 inh -37, Sa growth 42C 100 and Sa growth 42C second temp 83.
`COc1cccc(C2(O)CCN(C(=O)c3cccs3)CC2)c1` gave HCMV UL50-53 inh -2, Sa growth 42C 98, GIV Gai3 FP 104 and Sa growth 42C second temp 79.
Screening Cn1nc(C2CC2)cc1NC(=O)Nc1csc2ccccc12 returned HCMV UL50-53 inh -20, Sa growth 42C 92, GIV Gai3 FP 100 and Sa growth 42C second temp 85.
For Cc1ccc(NC(=O)c2c(C)nc3sc(C(=O)N4CCCC4)c(N)c3c2-c2ccco2)c(C)c1 the results were HCMV UL50-53 inh -4, Sa growth 42C 108, GIV Gai3 FP 103 and Sa growth 42C second temp 87.
Cc1ccc(C)c(Nc2nn3c(=O)c4ccc(C(=O)NCc5cccs5)cc4nc3s2)c1 was read as Sa growth 42C 106, GIV Gai3 FP 100 and Sa growth 42C second temp 81.

Compound activity as filed in PubChem BioAssay.
